GLA inh pH 4.5: qHTS Assay for Inhibitors of Human alpha-Galactosidase at pH 4.5 | purified enzyme, 4-MU-alpha-Gal fluorescence, pH 4.5 | activity change, negative = inhibition, % at 105 µM | 230,000 tested, under 10 active | AID 1467, 2008; inconclusive = small, poorly fitted or top-dose-only inhibition, or a rising curve; inactive = flat fitted curve, though single readings scatter; no compound was filed as active;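 also: 0% = full activity with enzyme and -100% = basal without enzyme; dose as in the result columns while the protocol names 77 µM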
Rango-impB inh: qHTS Assay for Inhibitors of Rango (Ran-regulated importin-beta cargo) - Importin beta complex formation. Potency, µM (series often up to 92.2 µM), without a hit: at the highest dose inhibition of complex formation. AID 540263, 2011. 340,000 tested, 0.031% active. Rango CFP/YFP FRET sensor + importin beta, 45 min. Importin subunit beta-1 (Homo sapiens), Q14974; active = rising FRET ratio curve, often small or poorly fitted; inconclusive = mostly compound fluorescence or quenching in the first reads; inactive = flat curves in all reads;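 also: potency is read from the fitted curve at half-maximal effect; 0% = DMSO wells and 100% = buffer wells lacking importin beta; nearly all actives have a fitted effect of over 15% in size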
Target sequence (Q14974 whole entry, looked up): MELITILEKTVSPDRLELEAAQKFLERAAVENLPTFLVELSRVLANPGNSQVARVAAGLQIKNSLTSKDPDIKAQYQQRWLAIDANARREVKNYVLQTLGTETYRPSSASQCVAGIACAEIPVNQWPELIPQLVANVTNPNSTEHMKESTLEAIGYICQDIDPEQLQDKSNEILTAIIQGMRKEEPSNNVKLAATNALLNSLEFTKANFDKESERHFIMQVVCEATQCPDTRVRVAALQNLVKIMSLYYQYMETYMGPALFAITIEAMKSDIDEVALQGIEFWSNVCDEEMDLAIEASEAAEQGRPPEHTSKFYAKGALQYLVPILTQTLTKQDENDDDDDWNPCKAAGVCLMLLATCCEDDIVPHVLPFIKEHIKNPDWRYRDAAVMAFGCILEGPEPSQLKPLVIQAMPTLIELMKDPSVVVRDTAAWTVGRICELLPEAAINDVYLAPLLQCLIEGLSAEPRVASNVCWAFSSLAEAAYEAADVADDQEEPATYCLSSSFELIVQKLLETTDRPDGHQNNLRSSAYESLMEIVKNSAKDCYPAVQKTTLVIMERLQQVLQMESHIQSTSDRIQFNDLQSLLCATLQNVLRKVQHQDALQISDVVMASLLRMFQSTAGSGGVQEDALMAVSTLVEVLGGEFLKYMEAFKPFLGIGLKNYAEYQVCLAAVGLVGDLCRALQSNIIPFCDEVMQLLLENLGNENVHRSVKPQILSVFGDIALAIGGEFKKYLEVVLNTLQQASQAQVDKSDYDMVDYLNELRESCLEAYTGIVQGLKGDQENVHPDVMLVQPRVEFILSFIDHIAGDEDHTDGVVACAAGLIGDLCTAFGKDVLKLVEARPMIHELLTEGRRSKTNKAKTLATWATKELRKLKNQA
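FRET biosensor Rango (snurportin 1 IBB between N-terminal EYFP and C-terminal Cerulean), 50 nM in PBS/1 mM DTT/0.02% Tween-20/0.1% BSA, preincubated 5 min RT with compound; 0.125 microM importin beta added, 45 min RT, CFP/YFP FRET ratio read.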
miR-21 FLuc: qHTS Assay for Modulators of miRNAs and/orActivators of miR-21. HeLa miR-21 FLuc reporter, luciferase, 48 h. Potency, µM (titrated, usually from 38.3 µM), without a hit: at the highest dose reporter change, positive = more light. 340,000 tested, under 10 active. AID 2288, 2010; active = well fitted rising curve with a large enough effect; inconclusive = small, poorly fitted or top-dose-only effect; inactive = no such curve, though single readings can be large or run the other way;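 also: % of control where 0% means no effect; miR-21 action dims this reporter so a rising signal means less miR-21 action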
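Using DMEM plus 10% FBS, HeLa miR-21-FLuc cells are incubated with test compounds (final up to about 40uM) for 48 hours; firefly luciferase signal is then imaged following reagent-mediated lysis.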
Rango release inh: qHTS Assay for Inhibitors of RanGTP induced Rango (Ran-regulated importin-beta cargo) - Importin beta complex dissociation; Biochemical FRET Rango-importin beta, RanGTP-induced dissociation; AID 540253, 2011; 340,000 tested, 0.071% active; Potency, µM (titrated, usually from 46.1 µM), for inactives: at the top dose activity change, negative = inhibition; active means falling FRET ratio curve, often poorly fitted, with flat reads before Ran was added; inconclusive means other falling curves, or compound fluorescence or quenching; inactive means flat or rising ratio curve;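 also: potency is read from the fitted curve at half-maximal effect; % of control where 0% means no effect; nearly all actives have a fitted effect of over 45% in size; -100% = wells without RanGTP and RCC1; the record marks most hits as doubtful in a second field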
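Compounds preincubate 5 min with complex of recombinant Rango and importin beta in PBS with 1 mM DTT. Ran (0.6 uM) loaded with 2 mM GTP plus 0.2 uM RCC1 starts dissociation; FRET is recorded 45 min later.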
An asterisk follows results filed as active; ? = inconclusive; / = no result given; & = joins results of further samples.

SMILES	GLA inh pH 4.5	Rango-impB inh	miR-21 FLuc	Rango release inh
C=C(C)C1CC=C(CN2CCC(O)CC2)CC1 (centres undefined)	6	3.9%	0%	3%
COCCNC(=O)/C(C#N)=C/c1ccc(O)cc1	-8	?	-8%	-13%
CCN(C[C@H]1N[C@@](CC)(C(=O)OC)[C@H]2C(=O)N(Cc3ccccc3)C(=O)[C@@H]12)C(=O)NC(C)C	/	-0.9%	/	-13%
COc1ccccc1NC(=O)Cc1noc(CSc2nnc(C(F)(F)F)n2C)n1	12	-2.2%	2%	-11%
NN1C(=O)/C(=C\c2ccco2)SC1=S	-3	2.7%	2%	-20%
CC1=CC2=NC(=O)/C(=C\c3cc(C)n(-c4ccc(F)cc4)c3C)C(=N)N2O1	1	?	-3%	?
O=S(=O)(NCCc1ccccc1)c1cccc2nsnc12	-2	0.4%	0%	10%
CC1(C)CC(=O)C=C(NNC(=O)c2ccccc2O)C1	0	?	14%	?
COc1ccc(NC(=O)CN2CCN(CC(=O)Nc3ccccc3Cl)CC2)cc1	3	6.0%	4%	27%
COc1ccc(Br)cc1S(=O)(=O)NNC(=O)c1c(C)nc2ccccn12	-2	-3.9%	0%	19%
O=c1[nH]c(CSc2nc(-c3ccc(F)cc3)cs2)nc2ccccc12	3	3.7%	-23%	0%
O=C(CN1CCC(C(=O)c2ccc(F)cc2)CC1)Nc1ccccc1	2	-0.8%	12%	-11%
CCOC(=O)C1CCN(C(=O)COC(=O)c2oc3ccc(OC)cc3c2C)CC1	/	0.9%	/	-1%
O=S(=O)(c1cccs1)N1CCc2ccccc21	-3	-3.3%	-12%	-6%
CCOC(=O)C1CCN(S(=O)(=O)c2ccccc2[N+](=O)[O-])CC1	/	2.3%	/	15%
COc1cc2c(cc1NC(=O)c1cccnc1)CCCC2	4	-5.4%	-28%	-1%
COc1ccc(OCC(=O)Nc2nnc(S(=O)(=O)N3CCCCCC3)s2)cc1	/	-2.0%	0%&-33%	-9%
CC(C)(C)c1nc(SCC(=O)N2CCCC2)c2ccccc2n1	4	-1.9%	-1%	-13%
CCOC(=O)C1Sc2[nH]c(=O)sc2C(c2ccc(Cl)cc2)C1C(=O)OCC (centres undefined)	-4	1.4%	12%	-28%
CCN(CC(=O)Nc1ccc(Br)cc1)C(=O)c1nc2nc(C)cc(C)n2n1	/	2.9%	/	2%
Cc1cccnc1NC(=O)c1csnn1	5	2.4%	-1%	21%
CS(=O)(=O)c1ccc(C(=O)OCC(=O)N(CCc2ccccc2)Cc2ccccc2)cc1	/	1.9%	/	17%
O=S(=O)(CCN1CCCC1)NCCNS(=O)(=O)c1ccc(F)cc1Br	/	-6.1%	/	-2%
Cc1ccc(NC(=O)CSC(C)C(=O)NCCc2ccccn2)cc1 (centres undefined)	-3	0.1%	-1%	10%
COc1ccc(S(=O)(=O)NNc2nc(C)cc(C)n2)cc1[N+](=O)[O-]	/	1.9%	1%	7%

An excerpt from above in order of number of heavy atoms, smallest number first:
SMILES	GLA inh pH 4.5	Rango-impB inh	miR-21 FLuc	Rango release inh
Cc1cccnc1NC(=O)c1csnn1	5	2.4%	-1%	21%
COc1ccc(OCC(=O)Nc2nnc(S(=O)(=O)N3CCCCCC3)s2)cc1	/	-2.0%	0%&-33%	-9%
CCN(C[C@H]1N[C@@](CC)(C(=O)OC)[C@H]2C(=O)N(Cc3ccccc3)C(=O)[C@@H]12)C(=O)NC(C)C	/	-0.9%	/	-13%

Next part.
SMILES	GLA inh pH 4.5	Rango-impB inh	miR-21 FLuc	Rango release inh
COc1ccc(CNC(=O)C2CCCN(C(=O)Nc3ccccc3OC)C2)cc1 (centres undefined)	/	-0.6%	1%	0%
CCOC(=O)C1=C(C)N=c2s/c(=C/c3cccc([N+](=O)[O-])c3O)c(=O)n2C1c1cc(OC)c(OC)c(OC)c1 (centres undefined)	/	11%	-1%	-5%
Cc1ccc(Cl)cc1NC(=O)C(=O)N/N=C/c1ccc2c(c1)OCO2	/	4.1%	-3%	2%
COCCNC(=O)/C(C#N)=C/c1c(N2CCN(C)CC2)nc2ccccn2c1=O	/	?	6%	?
O=C(COC(=O)c1ccc(F)c(S(=O)(=O)N2CCOCC2)c1)NC1CCCCC1	/	0.4%	/	17%
COc1ccc(CC(=O)N/N=C\c2cc(Br)c(O)c(Br)c2)cc1	/	0.0%	-10%	10%
Cc1[nH]c(=O)nc(SCc2cccc(Cl)c2)c1C#N	/	?	0%	-27%
O=C(c1ccco1)N1CCN(C(=O)c2ccc(-c3ccc([N+](=O)[O-])cc3)o2)CC1	/	-1.6%	/	8%
COc1cc2nc(C3CCC3)n(NC(=O)COc3ccccc3)c(=O)c2cc1OC	4	0.7%	-4%	2%
Cc1ccc(Nc2cc(=O)n(C3CCCCC3)c(=O)[nH]2)cc1C	9	0.0%	-4%	2%
O=C1C2CCCCC2C(=O)N1c1nccs1 (centres undefined)	/	?	-1%	-11%
CCNC(=S)N/N=C/c1cccs1	2	-1.7%	-5%	-2%
O=c1cnnc(N/N=C/c2c[nH]c3ccccc23)[nH]1	-6	0.2%	-5%	2%
Cc1nonc1NC(=O)OC1CCCCC1	0	-1.6%	-4%	-2%
CN(CC(=O)Nc1ccc(OC(F)(F)F)cc1)C(=O)/C=C/c1ccco1	/	-1.1%	/	-11%
O=C(Nc1nnc(C2CCCCC2)s1)c1ccco1	0	-0.7%	-36%	-14%
O=C(CC1OC(=O)c2ccccc21)c1ccco1 (centres undefined)	0	0.4%	-20%	-7%
OCCNc1cnc2ccccc2n1	13	6.7%	-29%	19%
O=c1oc2cc(O)ccc2c2c1CCCC2	?	?	-8%	?
COC(=O)C(C)Oc1cc(C)ccc1COc1ccc(-n2nc(C)n(C(F)F)c2=O)cc1 (centres undefined)	/	0.6%	/	-2%
COc1ccc(-c2coc3cc(O)ccc3c2=O)cc1	3&6	-4.8%	/	?
COc1ccc(OC)c(C2=NOC(C(=O)Nc3c(C)n(C)n(-c4ccccc4)c3=O)C2)c1 (centres undefined)	-1	9.2%	-4%	21%
COc1ccc(-n2c(CNC(=O)c3cc(OC)c(OC)c(OC)c3)n[nH]c2=S)cc1	7	0.3%	-1%	14%
CC(=O)Nc1ccc(/C(C)=N/NC(=O)c2ccccc2Cl)cc1	9	-0.7%	-21%	1%
CC1(C)CC(NC(=S)NCc2ccc3c(c2)OCO3)CC(C)(C)N1	4	/	-2%	/
SMILES	GLA inh pH 4.5	Rango-impB inh	miR-21 FLuc	Rango release inh
CC(=O)c1cc2c(cc1NC(=O)CCn1cnnn1)OCO2	/	1.3%	0%	-6%
COc1ccc(NC(=O)CNC(=O)Cn2ccc3ccccc3c2=O)c(OC)c1	/	2.1%	1%&-9%	15%
O=C1NC(=O)N(c2ccccc2)C1=O	/	0.4%	-1%	8%
O=C(CCC1CCCC1)NCc1cccs1	2	-0.2%	-8%	-14%
O=C(NCCc1c[nH]c2ccccc12)C(=O)NCC1OCCN1S(=O)(=O)c1ccccc1 (centres undefined)	-3	0.7%	6%	-12%
COc1ccc(C2CC3(CC(C)(C)NC(=S)N3)Oc3cc(O)cc(C)c32)cc1OC (centres undefined)	-10	-1.2%	0%	-2%
O=C(Nc1ccn(Cc2ccccc2)n1)c1n[nH]c([N+](=O)[O-])c1Cl	2	0.6%	1%	-21%
CN(C)C(=O)N1CCC(C(=O)NC2CCCCCCC2)CC1	3	-8.5%	-7%	-2%
CCCCSc1nc2c(cnn2-c2ccc(C)c(C)c2)c(=O)[nH]1	-7	-2.1%	3%	13%
O=C(CCNC(=O)C1CCN(S(=O)(=O)c2ccc(F)cc2)CC1)NCc1ccccc1	/	-1.8%	-1%	-19%
COc1ccc(C2C(C(C)=O)=C(O)C(=O)N2CCCn2ccnc2)cc1OC (centres undefined)	1	0.8%	-6%	-12%
O=C(c1ccc2nc(Cc3ccccc3F)oc2c1)N1CC[C@H](O)C1	/	-2.0%	-47%	-4%
O=C(O)CSc1nnc(CNc2ccc(Cl)cc2)n1Cc1ccccc1	3	5.0%	0%	-3%
CCOc1ccc2oc(C(=O)N(CCOC)c3c(N)n(CC(C)C)c(=O)[nH]c3=O)c(C)c2c1	/	1.6%	/	9%
CCC(=O)Nc1ccc(N2CCN(C(=O)c3ccco3)CC2)c(Cl)c1	/	-2.5%	0%	-1%
Cc1cc(N2CCN(C(=O)c3ccco3)CC2)n2ncnc2n1	-2	-0.3%	-5%	13%
Cc1ccccc1OCC(=O)Nc1ccc(S(=O)(=O)Nc2ccccn2)cc1	2	3.5%	-21%	-1%
Cc1cc(C)n2nc(SCc3nnc(SCc4ccccc4Cl)s3)nc2n1	-8	9.9%	1%	-3%
CS(=O)(=O)N(CC(=O)N1CCN(Cc2ccc3c(c2)OCO3)CC1)Cc1ccc(Cl)cc1	1	6.2%	18%	22%
COc1ccc(-c2c(N)n[nH]c2C)cc1OC	0	1.2%	-2%	1%
O=C(/C=C/c1cn(-c2ccccc2)nc1-c1ccc2c(c1)OCCO2)NCCO	-10	-1.2%	-2%	4%
Cc1csc(NC(=O)c2cc3c(s2)CCC3)n1	-10	1.6%	-31%	-3%
Nc1nonc1-n1nnc(C(=O)N/N=C/c2c(Cl)cccc2Cl)c1CN1CCOCC1	/	-0.2%	1%	-1%
N#Cc1ccc(-c2ccco2)nc1SCC(=O)c1ccc(Cl)cc1	/	?	-16%	?
CC(C)(C)OC(=O)N(CCc1ccccc1)Cc1ccccc1OCc1ccc(NC(=O)C2CCC2)cc1	/	0.1%	/	1%

An excerpt from above in order of the miR-21 FLuc value, largest number first:
structure	miR-21 FLuc
CS(=O)(=O)N(CC(=O)N1CCN(Cc2ccc3c(c2)OCO3)CC1)Cc1ccc(Cl)cc1	18%
O=C(Nc1ccn(Cc2ccccc2)n1)c1n[nH]c([N+](=O)[O-])c1Cl	1%
O=C(/C=C/c1cn(-c2ccccc2)nc1-c1ccc2c(c1)OCCO2)NCCO	-2%
CN(C)C(=O)N1CCC(C(=O)NC2CCCCCCC2)CC1	-7%

The list continues:
SMILES	GLA inh pH 4.5	Rango-impB inh	miR-21 FLuc	Rango release inh
O=C(CSc1nnc(CNc2ccc(F)cc2)n1CC1CCCO1)Nc1ccccc1 (centres undefined)	-6	-5.1%	-3%	14%
COc1cccc(C(=O)NCc2ccc(N3CCN(C(=O)OC(C)(C)C)CC3)cc2)c1	0	1.9%	0%	12%
Cc1ccccc1Nc1cc(C(=O)NCC2CCCO2)c2ccccc2n1 (centres undefined)	-8	-1.1%	13%	1%
CCc1c(N)nc(N)nc1Nc1ccccc1C	/	-2.1%	/	-3%
O=C(Nc1ccc(C(=O)N2CCOCC2)cc1)c1ccccc1[N+](=O)[O-]	/	2.9%	0%	-14%
COc1ccccc1-c1nc(C#N)c(N2CCN(C(c3ccccc3)c3ccccc3)CC2)o1	2	0.7%	0%	-13%
CC(=O)N/C(=C/c1ccc(OS(=O)(=O)c2ccc(C)cc2)cc1)C(=O)NCCCO	-5	-2.5%	-1%	-25%
CN(C)CCN(Cc1ccccc1)c1nccc(N(C)C)c1C#N	6	1.3%	2%	-12%
O=C1Cc2ccccc2Sc2cc(OCCCN3CCCCC3)ccc21	-9	2.6%	5%	8%
Cc1ccccc1OCCC(=O)OCC(=O)Nc1cc(S(=O)(=O)N2CCOCC2)ccc1Cl	-3	-0.5%	1%	-9%
CCn1nc(NS(=O)(=O)c2ccccc2)c2cc3ccccc3nc21	/	2.4%	0%	?
COc1ccccc1/C=C/C(=O)Nc1cccc(S(=O)(=O)NC2=NCCCCC2)c1	1	-0.1%	5%	5%
O=C(C1CCN(S(=O)(=O)c2ccccc2)CC1)N1CCC1	/	?	/	/
Cc1cccc(NC(=O)c2cc(=O)n(Cc3ccccc3)c(=O)[nH]2)c1	11	2.3%	-5%	5%
CC(C)(C)c1[nH]c2ccccc2c1/C=N/O	-8	1.2%	-5%	4%
Cn1cnc2c1c(=O)n(Cc1ccccc1C#N)c(=O)n2C	/	-5.1%	4%	33%
c1ccc(CN2CCN(C3CCCSc4ccccc43)CC2)cc1 (centres undefined)	/	2.3%	/	14%
CCc1ccccc1NC(=O)CN(C)C(=O)COC(=O)c1ccco1	/	-2.0%	/	-12%
Cc1ccc(-c2nn(-c3ccccc3)cc2/C=N/NC(=O)c2ccc3c(c2)OCO3)cc1	8	0.1%	-38%	-1%

This is a subset (hit frequency here may not be typical).
